# Source: PubChem BioAssay (National Center for Advancing Translational Sciences (NCATS))
# Marburg entry inh = qHTS for inhibitors of binding or entry into cells for Marburg Virus | 1.8% of 300,000 active | Marburg virus pseudotyped entry inhibition, cell reporter; control for the full effect not named in the record; about a third of the inactives were read at about 46 µM | Potency, µM (highest dose often 37.8 µM), for inactives: at the highest dose activity change, negative = inhibition, actives largely listed as inhibitors; active = well fitted inhibition curve with a large enough effect; inconclusive = small, poorly fitted or top-dose-only effect, or effect the other way; inactive = flat fitted curve, though single readings scatter; tested in HEK293 cells; about a fifth of its hits are not listed in these tables; further: on the % scale 0 is the no-effect control and ±100 the full control effect; luciferase read-out
# SARS PLP yeast = qHTS of Yeast-based Assay for SARS-CoV PLP. AID 485353, 2010. Potency, µM (doses to about 32.9 µM), inactives show at the top dose activity, positive = growth rescue. S. cerevisiae expressing SARS-CoV PLpro, growth rescue; control for the full effect not named in the record. 0.19% of 330,000 active; further: 0% is about no effect; nearly all actives have a fitted effect of over 55% in size; growth read by luminescence after 48 h
# Cruzain inh Det = qHTS Assay for Promiscuous and Specific Inhibitors of Cruzain (with detergent). Cruzipain (Trypanosoma cruzi), P25779. 0.43% of 200,000 active. AID 1478, 2009. Potency, µM, inactives show max response, negative = inhibition, usual class: inhibitors. purified cruzain, Z-FR-AMC fluorescence, 0.01% Triton; active means well fitted curve in the direction sought with a large enough effect; inconclusive means small, poorly fitted or top-dose-only effect, or another doubt; inactive means no such curve, though single readings can be large; an effect the other way counts as inactive or inconclusive;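 further: plate controls were neutral wells for no effect and buffer without enzyme for full effect; nearly all actives have a fitted effect of over 40% in size; top concentration of the series not given in the record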
# Target sequence (P25779 123-467 limits assumed): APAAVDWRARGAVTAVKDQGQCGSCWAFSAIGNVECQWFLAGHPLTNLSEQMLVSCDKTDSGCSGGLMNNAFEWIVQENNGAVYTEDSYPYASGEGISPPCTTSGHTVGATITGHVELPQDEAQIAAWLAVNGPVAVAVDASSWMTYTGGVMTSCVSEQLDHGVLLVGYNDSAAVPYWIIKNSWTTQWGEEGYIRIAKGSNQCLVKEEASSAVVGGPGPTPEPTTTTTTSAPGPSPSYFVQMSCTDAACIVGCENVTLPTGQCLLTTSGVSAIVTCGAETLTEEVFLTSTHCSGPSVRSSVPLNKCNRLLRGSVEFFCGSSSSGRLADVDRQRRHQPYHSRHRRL
#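 Cruzain (1.5 nM) preincubated 15 min at RT with compound in 100 mM sodium acetate pH 5.5, 5 mM DTT, 0.01% Triton X-100. Reaction started with 2 uM Z-FR-AMC; AMC fluorescence (ex 360/em 450 nm) change over 60 s gave rate.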
# RE007 growth inh = qHTS Assay for Inhibitors of the HIV-1 protein Vpr | Potency, µM (titrated, usually from 92.2 µM), for the others: at the highest dose activity change, negative = less growth | 0.21% of 360,000 active | AID 651644, 2012 | S. pombe RE007 Vpr strain, BacTiter-Glo ATP luminescence, 24 h; control for the full effect not named in the record; active = well fitted falling curve with a large enough effect; inconclusive = small, poorly fitted or top-dose-only effect; inactive = no such curve, though single readings can be large or run the other way;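 further: on the % scale 0 is the no-effect control and ±100 the full control effect; nearly all actives have a fitted effect of over 50% in size; the assay follows cell death caused by Vpr and the record does not say whether a fall means rescue or toxicity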
#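 Fission yeast RE007 carrying one integrated HIV-1 vpr copy, seeded at OD 0.01 in PMG+AL medium with 23 nL pinned compound. Grown 24 h at 30 degrees; viability read by BacTiter-Glo luminescence after 5 min.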
# NS1 inh = qHTS Assay for Inhibitors of Influenza NS1 Protein Function | AID 2326, 2010 | 0.4% of 270,000 active | Potency, µM (top dose mostly 46.1 µM), for the others: top-dose activity, positive = more growth | S. cerevisiae slowed by influenza A NS1, growth recovery by OD600; further: actives are rising curves; nearly all actives have a fitted effect of over 50% in size
#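 Growth recovery, yeast-based: influenza A NS1 expressed in S. cerevisiae causes slow growth, and suppressors are detected by OD600. The parent strain without NS1 is used as positive control.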
# LASV entry inh = qHTS for Inhibitors of binding or entry into cells for Lassa Virus | Lassa virus pseudotype entry inhibition, cell reporter; control for the full effect not named in the record | Potency, µM (titrated, usually from 37.9 µM), for the others: at the top dose activity change, negative = inhibition, hits mostly inhibitors | 1.2% of 300,000 active; active means well fitted inhibition curve with a large enough effect; inconclusive means small, poorly fitted or top-dose-only effect, or effect the other way; inactive means flat fitted curve, though single readings scatter; tested in HEK293 cells; further: on the % scale 0 is the no-effect control and ±100 the full control effect; nearly all actives have a fitted effect of over 50% in size; luciferase read-out
# Cruzain noTriton = qHTS Assay for Promiscuous and Specific Inhibitors of Cruzain (without detergent) | purified cruzain, Z-FR-AMC fluorescence, no detergent | Potency, µM, without a hit: max response, negative = inhibition, actives largely listed as inhibitors | 2.3% of 200,000 active; active means well fitted curve in the direction sought with a large enough effect; inconclusive means small, poorly fitted or top-dose-only effect, or another doubt; inactive means no such curve, though single readings can be large; an effect the other way counts as inactive or inconclusive;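 further: plate controls were enzyme without inhibitor for no effect and buffer without enzyme for full effect; nearly all actives have a fitted effect of over 40% in size; top concentration of the series not given in the record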
#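 Purified cruzain at 1.5 nM, pre-incubated 15 min with compound at room temperature in 100 mM sodium acetate pH 5.5, 5 mM DTT, 0.00005% Triton X-100. Reaction started with 2 uM Z-FR-AMC; AMC fluorescence increase over 60 s gives rate.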
# 2A StopGo = High Throughput Screening for Foot and Mouth Disease Virus Antivirals | human cells with a luciferase reporter of 2A StopGo recoding; control for the full effect not named in the record | Potency, µM (top dose mostly 57.9 µM), for inactives: at the top dose signal change, negative = less light | 1.2% of 410,000 active; active = well fitted falling curve with a large enough effect; inconclusive = small, poorly fitted or top-dose-only effect; inactive = no such curve, though single readings can be large or run the other way; tested in HEK293T cells; further: on the % scale 0 is the no-effect control and ±100 the full control effect; nearly all actives have a fitted effect of over 45% in size; luciferase light after 4 h
# Active calls of the source: *; ? = inconclusive; / = no result given; & = joins results of further samples; [ ] = dose if it differs, or a comment. Unless noted, the call rests on the fitted dose curve; in most records, active means well fitted rising curve with a large enough effect; inconclusive means small, poorly fitted or top-dose-only effect; inactive means no such curve, though single readings can be large or run the other way. Potency means the concentration at half of the fitted maximal effect.
SMILES,Marburg entry inh,SARS PLP yeast,Cruzain inh Det,RE007 growth inh,NS1 inh,LASV entry inh,Cruzain noTriton,2A StopGo
CC(C)(CC(=O)O)CC(=O)N1CCN(c2nc3cc(Cl)ccc3s2)CC1,17%,-1%,/,-18%,-1%,11%,/,21%
O=C(/C=C/c1cccc2ccccc12)N1CCOCC1,27%[46.1 µM],0%,/,4%,-4%,-2%,/,42%[activator]
CCC(C)(C)n1nnnc1C(c1cc2cc3c(cc2[nH]c1=O)OCO3)N1CCN(C)CC1 (stereo unspecified),-20%,1%,-15%,-11%,-2%,17%[14.3 µM],6%,3%
Cc1nnc(SCc2nnc(-c3cccs3)o2)n1C1CCCCC1,-5%,0%,/,-5%,/,20%,/,-5%
O=C(NCc1ccccn1)c1cc(-c2ccccc2Cl)on1,-5%,1%,-2.6%,?,-14%,?,-3%,63%[activator]
CCOC(=O)CNC(=O)CN1CCCN(S(=O)(=O)c2ccc(Br)s2)CC1,24%[46.1 µM],-5%,4.5%,-11%,-2%,11%,-1%,4%
CCOc1ccccc1C(=O)Oc1c(S(=O)(=O)c2ccc(C)cc2)c(C)nn1-c1ccccc1,2%[46.1 µM],/,-3.9%,/,/,?,-9%,-22%
COc1ccc(Cn2c(CNS(=O)(=O)c3ccc4c(c3)CCCC4)nc3cccnc32)cc1,/,/,-7.6%,/,/,-10%[46.1 µM],-9%,75%[activator]
O=C(CC1C(=O)N(c2ccc(F)cc2)C(=O)N1Cc1cccnc1)Nc1ccc(F)cc1 (stereo unspecified),/,/,-2.7%,/,/,14%[46.1 µM],-4%,11%
O=C(CCCCC(=O)NN=Cc1ccc(Cl)cc1)NN=Cc1ccc(Cl)cc1,?,/,/,7%,/,7%,/,-3%
O=C(NCc1ccco1)C12CC3CC(C1)CC(C(=O)NCc1ccco1)(C3)C2,3%,2%,1.8%,4%,-5%,7%,10%,22%
O=C(CCC1CC(=O)Nc2ccccc21)NCc1ccc(F)cc1 (stereo unspecified),12%,-4%,-0.2%,-7%,5%,-36%[14.3 µM],-8%,2%
Cc1cccc(-c2oc3ccc(-c4ccc5c(c4)OCO5)cc3c2C#Cc2cncn2C)c1,-1%,-1%,/,-16%,/,/,/,0%
O=C1/C(=C/c2ccsc2)N2CCC1CC2,?,-1%,/,-12%,10%,2%[46.1 µM],/,-16%
CCC(=O)N=c1sc2ccccc2n1-c1ccccc1,-14%[46.1 µM],2%,/,0%,3%,-17%,/,-14%
Cc1ccc(-c2nc(=S)c3c(n2CCN2CCOCC2)CC(C)(C)OC3)cc1,-1%,-1%,-2.2%,21%,2%,10%,-12%,-8%
C=CCNC(=S)Nc1ccccc1-c1nnc2n1CCCCC2,-6%[46.1 µM],-1%,/,1%,-6%,/,/,9%
CC1=C(c2ccc(F)cc2)S(=O)(=O)N=C1N1CCC(C(=O)NCCc2ccccc2)CC1,/,/,-1.8%,/,/,?,2%,-22%
COc1ccc(NCc2nnc(SCC(=O)Nc3cccc(C)c3)o2)cc1,-26%[46.1 µM],10%,-0.8%,-8%,-7%,-19%,2%,17%
Cc1[nH]nc2oc(=O)c(CCO)c(C)c12,0%,4%,1.5%,-17%,8%,-2%,-8%,/
O=C(Cc1ccc2c(c1)OCCO2)Nc1cc(C(F)(F)F)ccc1N1CCOCC1,0%,-4%,/,4%,/,?,/,-14%
c1ccc2c(CCNC3=NCCC3)c[nH]c2c1,-3%,5%,4.7%,-19%,0%,14%,-6%,-9%
Cc1cc(C)n(C(C)CNS(=O)(=O)c2ccc(Cl)cc2)n1 (stereo unspecified),0%[46.1 µM],4%,/,6%,18%,-6%[46.1 µM],/,-8%
Cc1ccc(N2CCN(/N=C/c3c(C)nn(-c4ccccc4)c3Cl)CC2)cc1,6%,1%,1.6%,-4%,3%,2%,-6%,-11%
COc1ccc(-c2noc(-c3ccc(N4CCN(c5ccccc5)CC4)c([N+](=O)[O-])c3)n2)cc1,15%[46.1 µM],/,-4.6%,/,/,5%[46.1 µM],6%,-6%
Cc1nnc(N2C(=O)c3oc4ccccc4c(=O)c3C2c2cccc(OCCC(C)C)c2)s1 (stereo unspecified),?,/,-2.6%,/,/,1%[46.1 µM],0%,-1%
Fc1cccc(C2CC(c3cccc(Br)c3)Nc3nnnn32)c1 (stereo unspecified),0%,1%,-9.1%,-8%,-9%,-15%,-9%,-24%
CCOC(=O)c1ccc(NC(=O)CNC(=O)c2ccccc2)cc1,7%,7%,-2.3%,2%,8%,?,-4%,22%
O=C(C1=C(O)C(=O)N(CCN2CCOCC2)C1c1ccccc1)c1cccs1 (stereo unspecified),15%,/,/,-16%,-16%,-4%,/,59%[activator]
O=C(c1ccc2c(c1)N(Cc1cccc(Cl)c1)C(=O)c1ccccc1S2(=O)=O)N1CCC(Cc2ccccc2)CC1,/,/,0.7%,/,/,-20%[46.1 µM],-21%,-7%
Cc1ccc(NC(=O)Cn2c(CCC(=O)O)ccc2-c2cccs2)cc1,7%[46.1 µM],-3%,-8.5%&-3.7%,-7%,11%,18%[46.1 µM],-19%&-4%,-18%&5%
CCOC(=O)NC1(C(F)(F)F)N=C(c2ccccc2)NC1=O (stereo unspecified),6%,-3%,5.0%,6%,7%,-7%,-6%,-2%
CC(C)CCNC(=O)CN(Cc1ccc2c(c1)OCO2)C(=O)CCC(=O)Nc1ccccn1,11%,3%,3.8%,3%,-3%,17%,-4%,-12%
Cc1cccc(Cc2nnc(CCC(=O)N(C)C3CCOC3)o2)c1 (stereo unspecified),?,1%,/,9%,0%,2%[46.1 µM],/,17%
COc1ccc(Cc2c(O)nc(SCC(=O)c3ccc(OC)cc3)[nH]c2=O)cc1,?,0%,/,8%,-2%,?,/,-12%
COc1ccccc1NC(=S)N1CCN(C(=O)C2CCCO2)CC1 (stereo unspecified),/,0%,/,1%,0%,/,/,-4%
O=C(Nc1ccccc1C(=O)O)c1cccc(NC(=O)c2ccco2)c1,1%[46.1 µM],9%,/,15%,-1%,-6%[46.1 µM],/,34%[activator]
Cc1cccc(C)c1NC(=O)Cn1c(SCC(=O)NCc2ccccc2)nc2ccccc21,/,/,0.0%,/,/,-7%[46.1 µM],-1%,-1%
COc1ccc(C2=NN(CCC(=O)NCc3ccc4c(c3)OCO4)C(=O)CC2)cc1,10%,7%,1.0%,-1%,6%,?,-5%,-7%
Cc1ccc(-c2csc(N)n2)cc1,25%[46.1 µM],/,/,-16%,/,16%[46.1 µM],/,36%[activator]
Cc1ccccc1NC(=O)Cn1c(=O)n(C)c2ccccc21,3%,0%,6.8%,9%,-22%,14%,9%,-8%
O=C(CSc1ccc([N+](=O)[O-])cc1)Nc1cccc(S(=O)(=O)Nc2ccccc2F)c1,?,-1%,/,16%,2%,-28%[46.1 µM],/,9%
COc1cccc(CN(C)C(=O)C23CC4CC(CC(C4)C2)C3)c1,-10%[46.1 µM],-31%,/,32%,-23%,6%,/,?
NNC(=O)CNc1cccc(Br)c1,/,-2%,0.4%,/,-4%&2%,/,-5%,-10%
CCN(c1ccccc1)S(=O)(=O)c1cc2c3c(c1)C(C)C(=O)N3CCC2 (stereo unspecified),-28%[46.1 µM],9%,/,14%,15%,-18%[46.1 µM],/,-13%
O=C(Nc1ccc([N+](=O)[O-])cc1)Nc1ccon1,/,5%,/,-9%,-3%,-9%[46.1 µM],/,-22%
O=C(NCCCn1ccnc1)c1cccc(Cl)c1,6%,3%,/,17%,4%,20%,/,-3%
CC1CN(C(=O)Cc2ccc(-c3ccccc3)cc2)CC(C)O1 (stereo unspecified),-15%,1%,3.8%,-5%,-13%,-5%,20%,?
CCNC(=S)NNc1nc(N2CCCCC2)nc(N2CCOCC2)n1,-1%[46.1 µM],-3%,/,0%,/,-20%[46.1 µM],/,-16%
Cc1cc(C)c2c(ccc3ccccc32)n1,?,/,/,0%,/,6%,/,-25%
CSc1cccc(Nc2cc(C(=O)NC3CCCCC3)c3ccccc3n2)c1,-10%[46.1 µM],/,-7.8%,/,/,-5%[46.1 µM],-1%,-8%
CC(NC(=O)Nc1ccccc1F)C(C)(C)C (stereo unspecified),/,-1%,/,-16%,-1%,/,/,14%
COc1ccc(CCNC(=O)CN2CCCc3ccccc32)cc1OC,?,8%,-4.9%,-5%,?,0%,-3%,8%
Cc1ccc(CNS(=O)(=O)c2ccc([N+](=O)[O-])cc2)cc1,/,1%,/,-12%,5%,/,/,-12%
CC(Oc1ccc(F)cc1)C(=O)Nc1ccc(N2CCOCC2)cc1N1CCOCC1 (stereo unspecified),0%[46.1 µM],-9%,/,-2%,/,2%,/,-2%
OCC1CCCN(C2CCN(Cc3nc(Cc4cccc(C(F)(F)F)c4)no3)CC2)C1 (stereo unspecified),-23%[46.1 µM],1%,/,-10%,2%,-12%,/,-5%
COc1ccccc1NC(=O)C1CCN(S(=O)(=O)c2cn(C)cn2)CC1,/,/,-0.5%,/,/,4%[46.1 µM],2%,29%
COCCN(C(=O)c1ccc(N2CCCC2=O)cc1)c1c(N)n(CC(C)C)c(=O)[nH]c1=O,4%,1%,/,10%,/,0%,/,-1%
CCN(CC(=O)Nc1ccc(NC(C)=O)cc1)C(=O)c1cccc(S(=O)(=O)N2c3ccccc3CC2C)c1 (stereo unspecified),6%[46.1 µM],2%,/,5%,/,?,/,39%[activator]
Cc1ccccc1Cn1nc(C)c(NC(=O)c2noc3c2CC(C(C)(C)C)CC3)c1C (stereo unspecified),?,3%,-2.8%,8%,-88%,?,?,?
CCOC(=O)c1c(C)[nH]c(CCC(=O)NCCCN2CCN(c3cc(C)ccc3C)CC2)c1C,/,/,4.1%,/,/,?,0%,-15%
Cc1ccc(OCC(=O)N2CCN(CCc3ccncc3)CC2)cc1C,16%[46.1 µM],/,-0.4%,/,/,-9%[46.1 µM],17%,-17%
Cc1ccc(C(=O)Nc2ccc(C(=O)N3CCCCC3C)cc2)cc1 (stereo unspecified),-25%[46.1 µM],0%,/,4%,-9%,?,/,0%
